Source: PubChem (National Center for Advancing Translational Sciences (NCATS))
D2 PAM: human D2 receptor positive allosteric modulation | P14416 | DiscoveRx D2 beta-arrestin cells, luminescence, 90 min; 100% = 57 uM dopamine signal | potentiation, % (concentration not given with the values) | hit rate 0.23% among 360,000 | AID 624464; active = potentiation of 50% or more; inconclusive = 30% to 50%; inactive = 30% or less;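 note: compound concentration not given in the record; tested on top of an EC20 dose of dopamine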
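PathHunter beta-arrestin assay in DiscoveRx D2 cells. Compounds were added with an EC20 of dopamine (50 nM final) for 90 min at 37 deg C. Luminescence was read 1 h after detection reagent, with 57 uM dopamine as the EC100 control.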
Six1-Eya2 blk: inhibitors of human Six1/Eya2 interaction; AlphaScreen GST-Six1/His-Eya2 binding, biochemical; active compounds read low; control for the full effect not named in the record; AID 651725; Q15475+O00167; activity change, % (no concentration beside the values); hit rate 0.56% among 360,000; in the data active = activity change below about -65%; inconclusive = about -30% to -65%; inactive = above about -30%; note: % is set by controls: 0 for no effect and ±100 for the full control effect
Target sequence (O00167 whole entry, looked up): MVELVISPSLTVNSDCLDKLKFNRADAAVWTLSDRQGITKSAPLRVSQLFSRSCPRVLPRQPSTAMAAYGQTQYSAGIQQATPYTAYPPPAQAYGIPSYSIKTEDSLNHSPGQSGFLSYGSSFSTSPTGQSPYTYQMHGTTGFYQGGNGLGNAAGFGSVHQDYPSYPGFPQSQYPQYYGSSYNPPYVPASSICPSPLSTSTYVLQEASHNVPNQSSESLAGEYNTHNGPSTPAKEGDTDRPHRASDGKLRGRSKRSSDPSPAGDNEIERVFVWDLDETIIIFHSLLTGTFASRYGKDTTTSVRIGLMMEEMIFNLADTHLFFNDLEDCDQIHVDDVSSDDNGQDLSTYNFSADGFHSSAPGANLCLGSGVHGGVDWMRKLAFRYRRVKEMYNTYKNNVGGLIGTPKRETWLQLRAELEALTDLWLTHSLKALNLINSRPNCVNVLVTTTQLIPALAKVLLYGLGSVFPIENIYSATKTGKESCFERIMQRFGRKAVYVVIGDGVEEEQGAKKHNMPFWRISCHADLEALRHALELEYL
Target sequence (Q15475 whole entry, looked up): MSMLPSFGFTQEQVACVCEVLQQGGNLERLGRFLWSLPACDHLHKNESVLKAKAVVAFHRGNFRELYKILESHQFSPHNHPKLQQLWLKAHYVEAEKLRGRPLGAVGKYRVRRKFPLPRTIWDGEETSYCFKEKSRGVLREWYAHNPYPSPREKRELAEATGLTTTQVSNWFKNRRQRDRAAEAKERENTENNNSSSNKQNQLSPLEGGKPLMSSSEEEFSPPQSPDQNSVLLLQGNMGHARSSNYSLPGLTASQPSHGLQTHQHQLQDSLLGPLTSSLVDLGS
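Homogeneous AlphaScreen proximity assay pairing GST-Six1 with His-tagged Eya2 (added as 5X mix: 250 nM and 500 nM) in 50 mM Tris pH 8.0, 300 mM NaCl, 1 mM TCEP. Glutathione donor and nickel acceptor beads; 1 h, 37 °C, dark.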
CtBP-E1A blk: blocks the CtBP interaction with E1A; AID 651724; activity change, % (no concentration beside the values); AlphaScreen GST-E1A/His-CtBP binding, 1536-well; active compounds read low; control for the full effect not named in the record; hit rate 0.49% among 340,000; in the data active means activity change below about -65%; inconclusive means about -30% to -65%; inactive means above about -30%; note: % is set by controls: 0 for no effect and ±100 for the full control effect
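AlphaScreen with 125 nM GST-E1A and 125 nM His-CtBP (5X stocks) in Tris pH 8.0, 300 mM NaCl, BSA, Tween 20, TCEP. Compounds preincubated 2 h at 37 deg C, then glutathione donor/nickel acceptor beads added for 1 h at 37 deg C in dark.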
PINK1 modulator: PINK1 expression modulation; PINK1 immunofluorescence, high-content cytometry, 24 h; Potency, µM (highest dose often 76.6 µM), for inactives: at the highest dose activation (PINK1 increase), actives largely listed as activators; hit rate 0.2% among 410,000; AID 624263; active = well fitted activation curve with a large enough effect; inconclusive = small, poorly fitted or top-dose-only effect; inactive = flat fitted curve, though single readings scatter; cell line not stated here;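 note: potency is the fitted concentration of half-maximal effect; % of control where 0% means no effect; nearly all actives have a fitted effect of over 65% in size; a mitochondrial uncoupler was the plate control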
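Fluorescence from anti-PINK1 antibody, together with nuclear and cell stains, was scanned on a laser-scanning cytometer. Before staining, stable-line cells were incubated 24 hours with compounds at 5 concentrations; primary antibody 12 h at 10 degrees C.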
TRPV1 potentiator: human TRPV1 potentiation; Q8NER1; TRPV1-expressing cells, Fluo-8 calcium influx, capsaicin EC20 potentiation; host cell line not named in the record; control for the full effect not named in the record; potentiation, % at 8.33 µM; hit rate 0.02% among 320,000; active means potentiation above 80%; inconclusive means 30% to 80%; inactive means below 30%; note: 0% is about no effect
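Cells expressing TRPV1 were dye-loaded with Fluo-8 and read kinetically: 10 s baseline, 3 min after compound (agonist portion), then 2 min after EC20 capsaicin (allosteric enhancer portion). Calcium-bound dye fluorescence at 480/520 nm.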
Sfp PPTase inh: blocks B. subtilis Sfp PPTase activity; Q9F4F7; Biochemical Sfp PPTase activity, qHTS; Potency, µM, for the others: max response, negative = inhibition, most hits filed as inhibitors; hit rate 3.5% among 310,000; active = well fitted inhibition curve with a large enough effect; inconclusive = small, poorly fitted or top-dose-only effect, or another doubt; inactive = no such curve, though single readings can be large or run the other way;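 note: the enzyme is Sfp with the accession as filed and its product quenches rhodamine fluorescence; potency is the fitted concentration of half-maximal effect; 0% = enzyme reaction without inhibitor and -100% = no enzyme wells; top concentration of the series not given in the record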
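Step 1, compound plus 15 nM Sfp-PPTase, 15 min, room temperature. Step 2, add rhodamine-CoA (5 uM) and BHQ-2-YbbR (12.5 uM). Step 3, read 525/598 nm fluorescence at 0 and 30 min.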
D2 ag: activates the human D2 dopamine receptor | P14416 | DiscoveRx PathHunter D2 beta-arrestin, luminescence, 90 min; 100% = 57 uM dopamine signal | activation, % (concentration not given with the values) | hit rate 0.084% among 360,000 | AID 624465; in the data active = activation above about 40%; inconclusive = about 15% to 40%; inactive = below about 15%; note: compound concentration not given in the record; the text of the record calls up to 30% inactive
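Agonist mode: compounds alone added to overnight-plated D2 PathHunter cells for 90 min at 37 C, with 57 uM final dopamine (EC100) defining full response. Beta-arrestin recruitment detected by chemiluminescent reagent, read after 1 h at ambient temperature.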
* marks the source's active call; other numbers are inactive results; ? = inconclusive; nt = not tested or not shown; [ ] = another dose, or the depositor's remark.

SMILES	D2 PAM	Six1-Eya2 blk	CtBP-E1A blk	PINK1 modulator	TRPV1 potentiator	Sfp PPTase inh	D2 ag
CCOC(=O)c1c(C)nc2c(c1-c1ccc(Cl)cc1)C(=O)CC(C)(C)C2	-2	4	-1	3.5%	-20	0%	4.9
S=C(NCCc1ccccc1)N1CCc2ccccc2C1	-13	6	7	-1.3%	-5	25%	-1.7
Cc1cccc(CN2C(=O)NC(c3ccccc3)(c3ccccc3)C2=O)c1	-23	-12	-14	16%	19	13%	-8.7
Cc1nnc(SCC(=O)NCc2ccco2)n1Cc1ccccc1	-15	2	-1	1.1%	3	13%	-0.8
CC1=C(C(=O)N(C)C)CC(CC(=O)NCCCN(C)C)C(=O)N1CCCN1CCCC1=O (stereo not drawn)	-8	8	8	0.2%	nt	nt	-4.6
C/C=C/c1ccc(OCCOCCOc2cccc3cccnc23)c(OC)c1	-15	-15	-5	?	22	21%	-0.5
COc1ccc(CNC(=O)CN(C)S(=O)(=O)c2ccc3c(c2)n(C)c(=O)c(=O)n3C)cc1	-2	-1	1	-0.2%	10	13%	-2.1
Cc1ccc(NC(=O)[C@@H]2CCCN2C(=O)c2cccs2)cc1S(=O)(=O)N1CCCCC1	-4	-1	-7	2.2%	-10	nt	1.6
CCCNC(=O)C1(C)CCN(C(=O)c2c(Cl)cccc2Cl)C1 (stereo not drawn)	0	4	3	0.7%	nt	nt	4.9
COc1ccc(-n2c(COc3cccc(C)c3)n[nH]c2=S)cc1	-4	2	1	1.9%	-12	13%	13
CC(C)COC(=O)c1ccccc1OC(=O)c1ccncc1	-5	4	17	4.3%	-18	10%	-3.3
Cc1nc(NC(=O)C2CC2)sc1C	-14	16	0	-0.1%	-10	?	0.3
COc1ccc(Cc2nnnn2CC(=O)O)cc1	-2	7	4	3.0%	2	10%	-1.1
Cc1ccc(C2=NN(C(=O)CN3CCN(C4CCS(=O)(=O)C4)CC3)C(c3ccco3)C2)cc1 (stereo not drawn)	-18	-5	5	-0.7%	-25	nt	-1.8
Cc1ccc(C(=O)CCC(=O)N2CCN(c3ccc(F)cc3)CC2)cc1	-2	-6	0	-0.4%	-14	16%	0.9

Part of the list above in another layout:
Every second line gives: D2 PAM	Six1-Eya2 blk	CtBP-E1A blk	PINK1 modulator	TRPV1 potentiator	Sfp PPTase inh	D2 ag
Cc1ccc(C(=O)CCC(=O)N2CCN(c3ccc(F)cc3)CC2)cc1
    -2	-6	0	-0.4%	-14	16%	0.9
COc1ccc(CNC(=O)CN(C)S(=O)(=O)c2ccc3c(c2)n(C)c(=O)c(=O)n3C)cc1
    -2	-1	1	-0.2%	10	13%	-2.1
Cc1ccc(NC(=O)[C@@H]2CCCN2C(=O)c2cccs2)cc1S(=O)(=O)N1CCCCC1
    -4	-1	-7	2.2%	-10	nt	1.6
COc1ccc(-n2c(COc3cccc(C)c3)n[nH]c2=S)cc1
    -4	2	1	1.9%	-12	13%	13
COc1ccc(Cc2nnnn2CC(=O)O)cc1
    -2	7	4	3.0%	2	10%	-1.1

Other results
SMILES	D2 PAM	Six1-Eya2 blk	CtBP-E1A blk	PINK1 modulator	TRPV1 potentiator	Sfp PPTase inh	D2 ag
O=C(CCc1ccccc1)NCc1ccncc1	-3	6	7	1.2%	-6	12%	-5.3
CSc1ccc(CN(C)C(C)C(=O)NCc2ccccc2)cc1 (stereo not drawn)	-9	-2	2	2.5%	-5	9%	-8.7
COc1ccc(-c2n[nH]c(=S)n2-c2ccccc2C)cc1	-10	14	1	-1.2%	-12	?	2.6
CCN(CC)S(=O)(=O)c1cccc(-c2csc(C)n2)c1	-7	4	4	2.2%	-10	6%	-2.4
O=C(O)c1ccc(N2C(=O)c3ccc(C(=O)c4cccc([N+](=O)[O-])c4)cc3C2=O)cc1	-4	7	nt	-1.6%	-1	14%	?
NC(=O)Nc1cc(Cl)ccc1Cl	-8	7	-1	-0.6%	9	8%	-5.8
O=C(NCc1cccc(CNC(=O)C(=O)NCC2CCCO2)c1)C(=O)NCC1CCCO1 (stereo not drawn)	-2	-1	nt	2.3%	13	5%	0.5
COc1cc2c(cc1OC)C(C(N)=O)NCC2 (stereo not drawn)	-8	5	1	0.8%	nt	nt	1.2
CCOC(=O)[C@H]1[C@H]2COc3ccc(OC)cc3[C@@H]2N2C(=O)c3ccccc3NC(=O)[C@@]12C	-13	3	-27	0.0%	-7	nt	-1.4
O=Cc1cc(Br)c(OC(=O)N2CCOCC2)c(Br)c1	-12	6	3	4.4%	5	8%	5.8
O=C(Oc1ccc(Br)cc1)c1cccc(S(=O)(=O)N2CCOCC2)c1	-8	?	0	2.1%	-4	9%	-6.5
O=C1c2ccccc2C(=O)C1c1ccccc1F	-2	3	-11	-0.6%	-7	10%	-3.0
c1ccc(N2N=C(c3cccs3)CC2c2ccco2)cc1 (stereo not drawn)	-14	248	127	2.3%	26	3%	-0.4
C/C(CCC(C)C)=N\NS(=O)(=O)c1ccc(C)c([N+](=O)[O-])c1	-9	-1	3	2.6%	5	-18%	-1.0
O=C(c1cc(F)c(F)cc1Cl)N1CCOCC1	-19	0	2	-0.9%	-21	9%	-3.2
COc1ccc(OC2C(=O)N(c3ccc(C)c(C)c3)C2c2ccc(OC)c(OC)c2)cc1 (stereo not drawn)	2	-10	-10	5.2%	16	10%	-0.1
O=C(Cn1c(=O)oc2ccc(Cl)cc21)Nc1ccon1	-3	5	nt	0.8%	10	5%	-1.3
CNC(=O)NC(=O)CSc1cccc(C(F)(F)F)c1	-10	5	6	nt	-13	3%	-0.6
Cc1nc2ccccc2c2oc(C(=O)N3CCC(C)CC3)cc12	-1	8	nt	1.0%	-26	9%	-2.0
C=CCOc1ccc(C(c2c(C)n(C)n(-c3ccccc3)c2=O)c2c(C)n(C)n(-c3ccccc3)c2=O)cc1	-12	-1	2	-0.6%	-3	-12%	-0.6
COc1ccc(-n2cnc3cc(NCc4cccs4)ccc32)cc1	15	-25	?	-0.3%	1	-4%	-2.0
O=C(N/N=C/c1ccco1)c1ccc(NC(=O)C2CC2)cc1	-5	-3	0	-1.9%	27	10%	-1.0
COc1ccc(CNC(=O)Cc2csc(NC(=O)Nc3ccccc3OC)n2)cc1	-12	-4	0	1.1%	7	nt	-0.1
CCC(=O)N1c2ccccc2NC2=C(C(=O)CCC2)C1c1ccccc1 (stereo not drawn)	-10	3	0	-5.5%[38.3 µM]	3	6%	-0.1
Nc1nc2n(n1)C(c1cccs1)CC(c1ccccc1)N2 (stereo not drawn)	9	-2	-9	-1.6%	-7	-17%	-1.1
COc1cccc(-c2nnc(SCC(N)=O)n2-c2ccc(Cl)cc2)c1	-4	1	-3	8.0%[38.3 µM]	2	5%	-2.5
Cc1n[nH]c(C)c1S(=O)(=O)N(CC(=O)N1CCc2ccccc21)c1ccc(C(C)C)cc1	-3	-5	0	3.1%	nt	11%	-3.0
O=C(Nc1ccccc1)N1CCCN(c2ccc(C(F)(F)F)cc2[N+](=O)[O-])CC1	-7	-3	-4	1.0%	-2	20%	-2.4
COc1cc(NS(=O)(=O)c2ccc(NC(=S)NC(=O)c3ccccc3)cc2)nc(OC)n1	-10	0	0	0.1%	13	5%	-8.1
CC(C)OC(=O)CSc1nnc(-c2cccnc2)n1Cc1ccccc1	-12	0	-16	-3.2%	3	10%	-2.3
Cc1cc(NC(=O)CC(F)(F)F)n(-c2ccccc2)n1	-4	13	6	-2.5%	0	6%	0.9
Cc1ccc(/C(O)=C2/C(=O)C(=O)N(c3ccccn3)C2c2ccc(F)cc2)cc1 (stereo not drawn)	-3	-2	9	2.4%	1	?	-5.0
COc1ccccc1-c1cc(NC(C)=O)c2ncc(-c3ccc(S(C)(=O)=O)cc3)n2c1	2	-6	0	3.3%	nt	nt	3.7
CS(=O)(=O)Nc1cccc(C2=NN(C(=O)c3cccc(F)c3)C(c3cccs3)C2)c1 (stereo not drawn)	2	-6	0	0.3%	2	5%	1.9
CCOC(=O)/C(C#N)=C\c1ccc(N2CCN(C/C=C/c3ccccc3)CC2)cc1	-32	1	12	3.4%	1	16%	-8.9
CCN1C(=O)c2ccc(C(=O)NCc3ccc4c(c3)OCO4)cc2C1=O	2	4	6	7.3%[38.3 µM]	-6	1%	0.4
COc1ccc(C2CC(c3ccc4ccccc4c3)=NN2C(=O)CSc2ncccn2)cc1 (stereo not drawn)	-16	-24	-7	-0.6%	8	-8%	0.4
O=C(COC(=O)c1ccc(F)c(S(=O)(=O)N2CCOCC2)c1)NC1CC1	2	8	5	-1.4%	4	nt	-3.9
Cn1c(Br)nc2c1c(=O)n(Cc1ccccc1)c(=O)n2C	-1	-3	-3	-1.8%	13	1%	5.1
CCOC(=O)Cn1c(-c2cccnc2Cl)nc2cc(C)c(C)cc21	0	-10	-8	4.3%[38.3 µM]	-8	23%	-1.2
Cc1cc(C)n2nc(C(=O)OCC(=O)N(C)C3CCS(=O)(=O)C3)nc2n1 (stereo not drawn)	-1	7	1	0.5%	13	nt	-1.5
CC(C)(C)NC(=O)NC(=O)CN1CCCCC1	-6	9	15	0.2%	24	12%	0.3
Nc1ccc(C(=O)c2ccc3c(c2)OCCO3)cc1N	0	-2	1	9.2%[38.3 µM]	nt	nt	-0.9
COc1ccc(C2(O)CCN(C(=O)c3ccc4c(c3)OCO4)CC2)cc1	-10	-1	-2	-1.4%	2	12%	0.9
CSc1ccc(Cl)c(C(=O)NCC(C)C)c1	1	2	4	-1.6%[38.3 µM]	-2	-3%	-1.4
CCOc1ccc(C2/C(=C(\O)c3ccc4c(c3)OCCO4)C(=O)C(=O)N2CCN2CCOCC2)cc1OCC (stereo not drawn)	-12	1	-3	0.1%	17	25%	-6.6
CCOc1ccc(-c2cnc(N)n2C)cc1	-6	0	nt	1.9%	4	-5%	-3.0
O=c1nc(NCc2ccco2)sc2ncccc12	-3	-8	24	-1.5%[38.3 µM]	-24	15%	-0.5
O=C(CSc1nnc(Cc2cc(=O)[nH]c(=O)[nH]2)n1-c1ccc(Cl)cc1)NCC1CCCO1 (stereo not drawn)	-5	5	9	2.6%[38.3 µM]	21	3%	-3.0
Nc1nnc(SCC(=O)Nc2ccccc2N2CCOCC2)s1	9	-1	3	-0.1%	4	16%	0.8
Cc1cc(C)nc(Sc2ccc3nnnn3n2)n1	-16	2	11	-1.6%[38.3 µM]	-5	11%	-0.8
CC1(C)CC(=O)C(C(=O)c2ccccc2)C(=O)C1Cl (stereo not drawn)	-2	6	-2	3.0%	28	13%	4.5
